Autofluor counter: counter-screen for toxin protease inhibitors: compound fluorescence; compound autofluorescence counterscreen, microsphere flow cytometry; active compounds read high; fluorescence intensity (concentration not given with the values); 360,000 compounds, 3.1% hits; AID 624483;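 active = at least 3 SD above the mean of all compounds, about 16000 in these data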;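 also: 100 nL of 1 mM stock went into each well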
BJeLR viability: kills HRASV12-expressing BJeLR cells; inhibition, % (no concentration beside the values); AID 1554; BJeLR (HRASV12) viability, CellTiter-Glo ATP luminescence, 48 h; reference of the scale not given here; 300,000 compounds, 0.17% hits;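 active = replicate mean above 50%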;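 also: 50 nL library stock added to about 25 µL; numbers are from one replicate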
Sa ugtP lethal: kills S. aureus RN4220 lacking UgtP; S. aureus RN4220 ugtP deletion, OD600 growth, 16 h; some inactives read as strong as hits; growth inhibition, % (no concentration beside the values); AID 1259309; 330,000 compounds, 0.54% hits;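 active = z-score under -3 and OD600 up to 0.15 on both plates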;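 also: plate controls were untreated wells for no effect and antibiotic for full effect; wells of about 80 µL received 100 nL stock; the first replicate is given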
PrP 5UTR inh: inhibition of PrP 5' UTR reporter expression; inhibition, % (no concentration beside the values); 340,000 compounds, 0.35% hits; cell-based PrP 5' UTR mRNA reporter, plate reader;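 active = every replicate at 50% or more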;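 also: 0 = median of the neutral control wells; tested in H4 reporter cells; numbers are from one replicate; inactives centre near -14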
Mtb hypoxia inh: inhibitors of hypoxia-regulated fluorescent reporter in Mycobacterium tuberculosis; AID 1159583; 300,000 compounds, 0.1% hits; M. tuberculosis hypoxia-regulated fluorescent reporter, fluorescence; fluorescence inhibition, % (no concentration beside the values);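 active = 35 to 45% if threefold the growth effect, above 45% if 1.5-fold the growth effect; inactive = the rest, general growth blockers included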;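 also: wells of about 50 µL received 100 nL stock; 0% = vehicle wells and 100% = reference inhibitor wells; whole bacteria with a GFP reporter of the hypoxia response; strong numbers were not always called active; many hits fall short of the cut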
Sa RN4220 lethal: S. aureus RN4220 growth inhibition; OD600, 16 h; inhibition, % (no concentration beside the values); 330,000 compounds, 0.33% hits; AID 1259311;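 active = z-score of -3 or lower and OD600 up to 0.18 on both plates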;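 also: plate controls were untreated cells for no effect and reference antibiotic for full effect; stock transfer was 100 nL into about 80 µL; one replicate is shown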
Mtb hypoxia inh growth: further read-out of Mtb hypoxia inh, marked with its call; growth inhibition, %; measured here: M. tuberculosis growth (absorbance);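 0% = vehicle and 100% = reference antibiotic; read after six days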
* = called active by the depositor; . = no result given.

Screens in order – Autofluor counter	BJeLR viability	Sa ugtP lethal	PrP 5UTR inh	Mtb hypoxia inh	Mtb hypoxia inh growth	Sa RN4220 lethal
[1] O=c1[nH]nc(SCc2nnc(-c3cccc(Cl)c3)o2)n1C1CCCCC1
→ 4692	1	0	-23	-6	11	-2.4
[2] Oc1ccccc1/C=N/Nc1nccnc1Cl
→ 9470	31	.	27	.	.	.
[3] COc1ccc(C(=O)C[n+]2ccccc2C)cc1
→ 2334	12	2	-6	.	.	4.6
[4] CC(C)c1ccc(NC(=O)COc2ccccn2)cc1
→ 3631	-8	5	-47	7	10	3.5
[5] CC(C)NCC1CCc2cc(CO)c([N+](=O)[O-])cc2N1 (stereo not given)
→ 6081	-5	5	8	-8	-2	7.6
[6] C=CCSc1nnc(CNC(=O)c2ccc(Cl)cc2)n1CC
→ 4087	1	14	-12	8	3	2.2
[7] COc1cc(Cl)c(C)cc1NC(=O)CCCN1C(=O)CCC1=O
→ 19155*	6	-8	2	-9	5	-3.4
[8] COC(=O)Cc1ccc(NC(=S)N2CCN(c3ccc(OC)cc3)CC2)cc1
→ 2355	-3	1	-4	1	2	2.5
[9] COc1ccc(-n2c(CN3CCN(c4ccc(F)cc4)CC3)nc3ccc([N+](=O)[O-])cc3c2=O)c(OC)c1
→ 4297	6	8	-8	7	0	1.3
[10] Cc1ccc(C)n1-c1ncc(Br)cn1
→ 4652	2	5	-21	10	2	2.6
[11] Cc1nnc(NC(=O)c2ccco2)s1
→ 4499	-7	6	-4	8	10	-3.0
[12] CCCC(C)C(=O)Nc1ccc(NC(C)=O)cc1 (stereo not given)
→ 2781	-5	-1	-42	.	.	1.5
[13] CCCCCCCCCC(=O)OCC(O)CO (stereo not given)
→ 4095	-1	-1	-1	2	0	9.9
[14] CCn1c(N)c(C(=O)NC2CCCCC2)sc1=S
→ 8598	-1	-2	-7	3	0	-0.4
[15] Cc1nc([N+](=O)[O-])cn1CC(O)c1ccc(-c2ccccc2)cc1 (stereo not given)
→ 6155	-2	5	-10	8	1	2.1
[16] Cc1ccccc1NC(=O)CCCSc1nc2ccccc2s1
→ 2186	-3	-5	-34	6	7	0.3
[17] O=C(N/N=C/c1ccc[nH]1)c1c[nH]c2ccccc12
→ 4328	-3	.	-7	.	.	.
[18] COC(=O)[C@]1(S(=O)(=O)c2ccccc2)CC2ON=C(c3ccc(OC)cc3)C2C1 (stereo not given in full)
→ .	.	-6	.	-6	-13	-2.6
[19] O=C(CSc1n[nH]c(=O)[nH]c1=O)NCC1CCCCC1
→ 3726	-14	8	-7	-5	5	1.4
[20] COc1cccc(NC(=O)CCc2c(C)nn(-c3ccc(N4CCOCC4)nn3)c2C)c1
→ 6408	6	-2	-17	11	13	-1.2
[21] COC(=O)[C@]1(C)NC(c2ccc(-c3cccc(Cl)c3)cc2)C2C(=O)N(C)C(=O)C21 (stereo not given in full)
→ .	.	1	.	-3	-5	5.0
[22] Clc1ccccc1C1CC(c2ccccc2)=Nc2ccccc2N1 (stereo not given)
→ 3696	3	39	-31	7	18	-1.9
[23] CCOc1cc2c(cc1OCC)CN(CC(=O)Nc1ccccc1C(=O)NC1CC1)CC2
→ 3410	.	5	-10	3	-1	3.9
[24] CCOC(=O)COc1ccccc1/C=N\NC(=O)c1cc2c(ccc3ccccc32)o1
→ 5224	3	.	-11	.	.	.
[25] CCC1([N+](=O)[O-])COC(c2ccc(C)cc2)OC1 (stereo not given)
→ 3501	.	-1	-22	10	15	1.8
[26] COc1cccc2cc(C(=O)N(Cc3ccccc3)CC3CCCO3)c(=O)oc12 (stereo not given)
→ 8420	3	-12	-34	10	7	4.7
[27] COc1cc(OC)cc(C(=O)NCc2cccnc2)c1
→ 4987	0	0	-8	.	.	-0.1
[28] CC(C)CCN1CCN(Cc2ccc(C#CC(C)(C)O)s2)CC1CCO (stereo not given)
→ 3348	18	4	-14	9	-1	2.2
[29] Cc1onc(-c2ccccc2Cl)c1C(=O)N1CCC(Cc2ccccc2)CC1
→ 4603	-11	3	-7	-2	-2	5.1
[30] N#C/C(=C(\O)Cc1ccccc1)c1nc2ccccc2[nH]1
→ 4582	-2	0	-12	.	.	0.9
[31] Cc1ccc(S(=O)(=O)NCc2ccncc2)cc1
→ 3355	6	5	-13	6	7	2.3
[32] Cc1nccn1CC(O)COC1CCCCC1 (stereo not given)
→ 4669	-8	6	-13	.	.	3.9
[33] CC(=O)c1cc2c(cc1NS(=O)(=O)c1ccc3c(c1)OCCO3)OCO2
→ 9459	15	2	-24	13	5	3.0
[34] CCCNC(=O)c1ccc2c(c1)S(=O)(=O)c1ccccc1C2=O
→ 4481	7	7	-18	0	-3	8.1
[35] CC(C)n1c(-c2ccco2)csc1=Nc1cccnc1
→ 4744	2	11	-13	.	.	-5.2
[36] O=C(NCC1CCCO1)C1CCN(S(=O)(=O)c2cc(Cl)ccc2Cl)CC1 (stereo not given)
→ 5631	5	-1	-15	15	3	2.8
[37] COc1cccc(-c2nc(-c3ccc(NC(=O)c4ccncc4)cc3)no2)c1
→ 9560	-2	-15	-18	-3	2	-4.5
[38] COc1cc(-c2nnc3sc(-c4ccncc4)nn23)cc(OC)c1OC
→ 4492	9	0	-8	-4	-8	2.0
[39] Cc1ccccc1NC(=S)Nn1cnnc1
→ 4521	3	15	2	-2	-10	6.0
[40] O=C(NNC(=O)C1C2CCC(C2)C1C(=O)O)c1cccc(Cl)c1 (stereo not given)
→ 3549	1	5	-10	10	10	3.7
[41] COC(=O)c1ccc(NC(=O)c2ccc3c(c2)C(=O)N(Cc2cccnc2)C3=O)cc1
→ 5983	7	-5	-14	-10	3	-1.9
[42] Cc1ccc(C(=O)c2coc3ccc(O)c(Cl)c23)cc1
→ 6826	-20	11	-84	-2	6	5.0
[43] CC1CN(C(=O)COc2ncnc3ccccc23)CC(C)O1 (stereo not given)
→ 3631	1	5	30	12	6	2.0
[44] Cc1c(C=O)n(C)n(-c2ccccc2)c1=O
→ 2415	13	-1	-8	-6	6	-0.1
[45] COc1cc(C(=O)NCCC(=O)NC2CCC(C)CC2)cc(OC)c1OC (stereo not given)
→ 5604	2	3	-21	-4	3	0.5
[46] O=C(Nc1scc(-c2ccccc2)c1C(=O)O)c1ccccc1Cl
→ 3823	-7	-11	-2	8	2	12
[47] Cc1ccc(C(=O)Nc2c(C)n(C)n(-c3ccccc3)c2=O)cc1S(=O)(=O)N1CCCCC1
→ 5898	.	3	-16	1	-1	5.5
[48] Cc1ccccc1C(=O)N1CCN(c2ccc([N+](=O)[O-])c(NCc3ccco3)c2)CC1
→ 3922	-7	-1	-6	.	.	-3.0
[49] CCOC(=O)CCCNc1ccc([N+](=O)[O-])cc1[N+](=O)[O-]
→ 2015	4	5	-14	10	2	8.6
[50] CCn1cc(-c2ccnc3cc(C(=O)O)nn23)c(C)n1
→ 2020	2	6	-9	6	5	4.3
[51] CCC1Oc2ccccc2N(CC(=O)NCCc2ccc(OC)c(OC)c2)C1=O (stereo not given)
→ 4155	3	3	-9	7	7	-1.0
[52] O=C(Nc1cccc(Cl)c1)N1CCN(Cc2ccccc2)CC1
→ 6192	-1	-4	-47	.	.	5.0
[53] COc1cc(CN2CCNC(=O)C2CC(=O)N2CCCCO2)cc(OC)c1 (stereo not given)
→ 1972	1	7	-11	9	6	-0.5
[54] COc1ccc(Br)cc1C=NNc1ccc(S(=O)(=O)Nc2ccccc2C(=O)O)cc1[N+](=O)[O-]
→ .	.	99*	.	11	2	100*
[55] CN(C)c1cccc(C(=O)Nc2cccc(F)c2)c1
→ 2206	3	1	-94	.	.	-6.6
[56] COc1ccc(-c2nnn(CC(=O)OC3CCCCC3)n2)cc1OC
→ 3314	-3	17	-3	13	10	4.4
[57] OC(CNCc1ccccc1)c1ccc(Cl)cc1 (stereo not given)
→ 3684	.	-4	-15	19	12	0.9
[58] CCCCN=C1CC(C)(C)CC(=O)/C1=C(/O)CCCN1C(=O)c2ccccc2C1=O
→ 4623	29	.	-21	.	.	.
[59] O=C(O)c1nc(Cl)c(Cl)c(NN=Cc2ccccc2C(F)(F)F)c1Cl
→ .	.	16	.	1	12	1.8
[60] O=C(CSc1nc2ccccc2[nH]1)NCCCn1ccnc1
→ 16490*	1	2	-1	-2	0	1.2

(list continues)
Screens in order – Autofluor counter	BJeLR viability	Sa ugtP lethal	PrP 5UTR inh	Mtb hypoxia inh	Mtb hypoxia inh growth	Sa RN4220 lethal
[61] c1ccc(Cc2nnc3n2CCCCC3)cc1
→ 3536	-6	0	-3	13	10	1.6
[62] CC12CCCCC1=[N+]([O-])CN2O (stereo not given)
→ 9302	-1	-3	-26	8	6	5.8
[63] COc1ccccc1NC(=O)CSc1nc(N)c(C#N)cc1C#N
→ 4799	4	3	-16	6	2	7.5
[64] CCc1cc2c(=O)n(C(C)C(=O)OC3CCCCC3)cnc2s1 (stereo not given)
→ 3505	6	5	-51	.	.	2.3
[65] Brc1csc2ncccc12
→ 4974	6	15	-3	16	3	5.5
[66] CC(C)c1[nH]nc2c1C(c1cccnc1)C(C#N)=C(N)O2 (stereo not given)
→ 19924*	-8	3	-15	8	5	3.1
[67] CC(C)n1c(N2CCN(C(=O)N3CCCCC3)CC2)nc2ccccc21
→ 8777	7	5	-14	10	7	2.6
[68] CCN1CCN(CC(=O)Nc2cccc(C)c2C)C(=O)C1=O
→ 5920	-1	.	-6	.	.	.
[69] CC1CN(C(=O)/C=C/c2ccc(SC(F)F)cc2)CC(C)O1 (stereo not given)
→ 3552	-21	11	-17	14	6	7.9
[70] CCC(C)[C@H](NC(=O)[C@@H]1CSC2c3ccccc3C(=O)N21)C(=O)NCC1CCCO1 (stereo not given in full)
→ 5554	-1	3	-17	8	6	1.8
[71] COc1ccc(OCCCC(=O)NNC(=O)c2ccncc2)cc1
→ 5749	1	7	-11	.	.	5.3
[72] COc1cccc(C2C(C#N)=C(N)Oc3cc(C)n(Cc4ccccn4)c(=O)c32)c1OC (stereo not given)
→ 3667	6	1	-13	.	.	4.7
[73] CCOC(=O)C1(CCCc2ccccc2)CCN(Cc2cnc(C)s2)CC1
→ 4447	7	9	-3	11	7	8.0
[74] O=C(c1ccc(Cl)cc1)N1CCC(C(=O)N2CCN(c3ncccn3)CC2)CC1
→ 7771	.	7	-28	-3	3	1.3
[75] CC1(C)CC(N2CCCC2)=CC(=[N+]2CCCCCC2)C1
→ 2124	17	-1	-6	15	9	5.6
[76] CCC(C)N(C)C1CCN(C(=S)Nc2cccc(SC)c2)CC1 (stereo not given)
→ 3540	0	-9	-1	11	-3	2.4
[77] COc1ccc(C=NNC(=O)COc2cccc3cccnc23)cc1OC
→ .	.	-10	.	5	-3	-1.6

Compound activity (PubChem)
